Screening results (PubChem BioAssay)
HCMV NEC inh = cytomegalovirus nuclear egress complex inhibition | HTRF UL50-UL53 interaction, normalized percent inhibition | inhibition, % (test concentration not listed) | 190,000 compounds, 0.15% hits;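 active = both replicates at 50% or more, plus weaker picks with an unusually low signal ratio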;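 also: stock transfer was 100 nL into about 20 µL; 0% = negative control wells and 100% = wells with untagged competitor protein; inactives centre near -12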
Sa growth 42C = inhibitors of Staphylococcus aureus growth at 42 °C | S. aureus RN4220 growth, OD600, 20 h; stronger effect = lower value | relative growth, % (no concentration beside the values) | 170,000 compounds, 0.53% hits | AID 720641;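 active = growth at 42 °C up to 50% and 20 or more points under that at 30 °C, or under 10% at both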;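 also: 300 nL library stock went into each well; scaled to the means of positive and negative controls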
GIV Gai3 FP = GIV-Galpha-i interaction inhibition. P08753. Galpha-i3/FITC-GIV peptide fluorescence polarization, 90 min; stronger effect = lower value; scaled: aluminum fluoride 0%, vehicle 100%. percent of control (FP), % (test concentration not listed). 210,000 compounds, 0.42% hits;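 active = replicate mean at 85% of control or lower, very high polarization wells dropped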;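 also: wells of about 15 µL received 100 nL stock; the first replicate is given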
Target sequence (P08753 whole entry, looked up): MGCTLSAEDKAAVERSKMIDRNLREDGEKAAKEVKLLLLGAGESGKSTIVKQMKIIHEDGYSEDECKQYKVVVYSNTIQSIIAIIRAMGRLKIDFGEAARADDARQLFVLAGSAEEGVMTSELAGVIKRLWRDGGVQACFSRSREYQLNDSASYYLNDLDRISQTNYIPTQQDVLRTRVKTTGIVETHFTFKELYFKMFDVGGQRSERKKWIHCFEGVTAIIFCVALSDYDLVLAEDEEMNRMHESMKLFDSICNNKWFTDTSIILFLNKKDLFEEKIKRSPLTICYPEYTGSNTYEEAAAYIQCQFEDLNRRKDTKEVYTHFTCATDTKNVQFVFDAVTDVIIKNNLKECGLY
Sa growth 42C second temp = recorded beside Sa growth 42C, whose call it bears; relative growth, %; measured here: growth at 30 °C;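 optical density after 20 h as mean of two plates; 100% = untreated growth and lower means inhibition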
Starred values were filed as active, the others as inactive; nt = no result given; & = joins results of further samples.

The line under a structure holds: HCMV NEC inh | Sa growth 42C | Sa growth 42C second temp | GIV Gai3 FP
O=C(CSc1nccc(=O)[nH]1)Nc1ccc(Cl)cc1
 : -39 | 73 | 78 | 91
Cc1cc(C(=O)N2CCC(C)CC2)no1
 : -2 | nt | nt | 102
Cc1ccc(Nc2nc(C(=O)N3CCC(C(=O)NCCN4CCOCC4)CC3)cs2)cc1
 : -1 | 180 | 91 | 104
CSc1ccc(-c2nc(SCC(=O)NCc3ccco3)c(-c3ccccc3)[nH]2)cc1
 : nt | 89 | 86 | 98
Cc1ccc(OCC(=O)Nc2ccccc2SCc2cc(=O)n3cc(Cl)ccc3n2)cc1
 : -7 | nt | nt | 109
CCOC(=O)c1c(C)[nH]c(/C(C)=N/NC(=O)Cn2nc(C)cc2C)c1C
 : -6 | 94 | 94 | nt
CCCCOc1ccc(-n2c(N)c(C#N)c3nc4ccccc4nc32)cc1
 : -15 | 71 | 91 | nt
CN(C)CCN(C(=O)c1ccco1)c1nc2cc3c(cc2s1)OCO3
 : nt | 76 | 79 | 104
COc1cc(OC)c(NC(=O)CCS(=O)(=O)c2ccc3c(c2)oc(=O)n3C)cc1Cl
 : nt | 99 | 86 | 111
CCN(CC)S(=O)(=O)c1ccc2c(c1)c(=O)c(C(=O)N1CCN(c3ccc(OC)cc3)CC1)cn2C
 : -7 | 104 | 94 | 103
O=C(Cn1cccc1)Nc1ccc(F)cc1F
 : 5 | 87 | 95 | 100
Cc1ccc(-n2c(=O)c3cccnc3n2CC(=O)Nc2cc(Cl)ccc2C)cc1
 : nt | 100 | 97 | 105
NC(=O)N/N=C/c1ccc(/C=N/NC(N)=O)cc1
 : -4 | 100 | 95 | 104
Cc1c(C(=O)Nc2ccc(F)c(F)c2)oc2ccc(S(=O)(=O)N3CCCCC3)cc12
 : nt | 105 | 95 | 102
c1ccc2c(c1)nc(NCc1ccc3c(c1)OCO3)n1cnnc21
 : -10 | nt | nt | 108
Cc1ccccc1CNC(=O)C1CCN(C(=O)c2sccc2-n2cccc2)CC1
 : 4 | 103 | 96 | 107
CCC(NC(=O)c1ccccc1NC(=O)c1ccccc1)C(=O)N1CCCC1 (stereo not drawn)
 : -31 | 114 | 89 | nt
CCN1CCN(Cc2ccc3c(c2)Cc2ccccc2-3)CC1
 : -7 | 102 | 120 | 99
Cc1ccccc1Nc1nc(N)nc(COC(=O)Cc2ccc(Cl)cc2)n1
 : -8 | 120 | 96 | nt
O=C(CSc1ccccc1)NCCn1c(-c2ccncc2)nc2cccnc21
 : -2 | nt | nt | 99
C=CCNc1nc2c(c(=O)n(C)c(=O)n2C)n1Cc1ccc(F)cc1
 : -10 | 84 | 79 | 96
Cc1ccccc1CN(C)CC(=O)NC(=O)NC1CCCCC1
 : -11 | 89 | 94 | nt
CCCN1C(=O)/C(=c2\sc3n(c2=O)C(c2cccc([N+](=O)[O-])c2)C(C(=O)OCC)=C(C)N=3)c2ccccc21 (stereo not drawn)
 : -23 | nt | nt | 109
CCNC(=O)CC1C(=O)N(c2ccccc2)C(=O)N1Cc1ccc(OC)cc1 (stereo not drawn)
 : nt | 113 | 91 | 99
O=C(O)CC(NS(=O)(=O)c1ccc(Cl)s1)c1ccccc1 (stereo not drawn)
 : nt | 83 | 75 | 99
COC(=O)c1c(NC(=O)COc2ccc(Cl)cc2)sc(C)c1C
 : -39 | 98 | 86 | 106
NC(N)=Nc1nc2ccccc2o1
 : -12 | 85 | 90 | nt
C(=N\N1CCN(Cc2cccc3ccccc23)CC1)/c1ccncc1
 : -12 | 95 | 89 | nt
c1ccc(-n2nc(SCC3COc4ccccc4O3)nc2C2CC2)cc1 (stereo not drawn)
 : -3 | 119 | 89 | nt
COc1cc2c(cc1OC)C(c1ccccc1)N(C(=O)CSc1nnc(-c3c[nH]c4ccccc34)o1)CC2 (stereo not drawn)
 : 9 | 104 | 92 | nt
COc1ccccc1-c1nc2c3c4c(sc3ncn2n1)CCCCC4
 : -18 | nt | nt | 97
CN(C)C1(CNC(=O)COc2ccc(Cl)cc2)CCCCC1
 : 1 | nt | nt | 105
NS(=O)(=O)c1ccc(NNC(=O)c2c(F)cccc2Cl)cc1
 : -31 | 87 | 84 | 102
CC(NC(=O)Cn1cc(S(=O)(=O)N(C)C)ccc1=O)c1ccc2c(c1)OCCO2 (stereo not drawn)
 : -21 | 78 | 87 | nt
Cc1cc(C(=O)CSc2nc(-c3ccccc3)cn2N)c(C)n1Cc1ccc2c(c1)OCO2
 : -27 | 82 | 74 | nt
O=C(Nc1ccc(N2CCOCC2)cc1)c1cccnc1
 : 14 | 107 | 98 | nt
Cc1c(Cl)cccc1NC(=O)c1cc2sccc2n1Cc1ccc(F)cc1
 : -11 | 101 | 97 | 98
Cc1cccc(C)c1-n1c(SCC(=O)Nc2cccc(C#N)c2)nnc1-c1cccc(S(=O)(=O)N(C)C)c1
 : -2 | 107 | 93 | nt
COc1ccc(C(=O)Nc2cc(C(C)C)c(O)c(S(=O)(=O)c3ccc(OC)cc3)c2C)cc1
 : -17 | 111 | 80 | 103
CC1CCCCN1CCCNC(=O)c1cc2c(s1)-c1ccc(Cl)cc1SC2 (stereo not drawn)
 : nt | 118 | 77 | 102
CC1(C(=O)NC2CCCC2)CCC(=O)N1CCC1=CCCCC1 (stereo not drawn)
 : -3 | 101 | 88 | 102
Cc1cc(=O)[nH]c(SCC(=O)Nc2nnc(CC(C)C)s2)n1
 : -28 | 88 | 89 | 99
CCOC(=O)c1cc(-c2ccccc2)n(CCCC(=O)Nc2ccccc2C)c1C
 : nt | 99 | 84 | 99
Cc1nn(CC(=O)N2CCN(c3cccc(C(F)(F)F)c3)CC2)c(=O)c2cc3sccc3n12
 : -11 | 124 | 94 | 101
CCc1cc2c(cc3c(=O)n(CCCC(=O)NCc4ccccc4Cl)nc(CC)n32)s1
 : -12 | 114 | 67 | 105
CC(O)c1ccc(C(C)O)cc1 (stereo not drawn)
 : 4 | 78 | 95 | 100
O=c1[nH]c(Nc2nc3ccccc3o2)nc2ccccc12
 : 12 | 99 | 82 | 105
Cc1noc(C)c1CSC1=N/C(=C\c2ccco2)C(=O)N1c1ccc(OC(F)F)cc1
 : -17 | 95 | 89 | nt
Cc1cnc(C(=O)OCCOc2ccc(Br)cc2)cn1
 : 0 | 101 | 99 | nt
Cc1ccc2nc(NCCN3CCOCC3)c3nncn3c2c1
 : nt | 104 | 85 | 104
CC1CCc2onc(C(=O)N3CCCCC3)c2C1 (stereo not drawn)
 : -32 | 97 | 89 | 99
Cn1cc(CN2CCc3ccccc3C2)c2ccccc21
 : 2 | 118 | 93 | 106
CC(C)NS(=O)(=O)c1ccc(N2C(=O)CC3(CCCC3)C2=O)c(Cl)c1
 : -11 | 102 | 87 | 108
Cc1nc2ccc(C(=O)OCc3ccccc3)cc2nc1C
 : -82 | 94 | 96 | 101
O=C(Nc1ccc(F)cc1F)NC1CC(=O)N(Cc2ccccc2)C1 (stereo not drawn)
 : nt | 85 | 82 | 102
CCOC(=O)c1c(C)[nH]c(C(=O)N2CCC(C(C)C(=O)NCc3ccc(N(C)C)cc3)CC2)c1C (stereo not drawn)
 : -9 | nt | nt | 106
Cc1cc(C)cc(-n2c(SCC(=O)c3c[nH]c4ccccc34)nc3cc(C(=O)NC(C)C)ccc3c2=O)c1
 : 6 | nt | nt | 114
Nc1n[nH]c(Cc2nc3ccccc3[nH]2)n1
 : -11 | 96 | 100 | 103
COc1ccc(C2=NN3C(C2)c2cccc(OC)c2OC3(C)C)cc1 (stereo not drawn)
 : nt | 77 | 67 | 187
CNc1ncnc2c1ncn2[C@@H]1O[C@H](CO)[C@H](O)C1O (stereo partly drawn)
 : -20 | nt | nt | 100

Some of the entries so far, with bars between the fields:
SMILES | HCMV NEC inh | Sa growth 42C | Sa growth 42C second temp | GIV Gai3 FP
Cc1cnc(C(=O)OCCOc2ccc(Br)cc2)cn1 | 0 | 101 | 99 | nt
COc1ccc(C2=NN3C(C2)c2cccc(OC)c2OC3(C)C)cc1 (stereo not drawn) | nt | 77 | 67 | 187
CCOC(=O)c1c(C)[nH]c(C(=O)N2CCC(C(C)C(=O)NCc3ccc(N(C)C)cc3)CC2)c1C (stereo not drawn) | -9 | nt | nt | 106

The list continues.
The line under a structure holds: HCMV NEC inh | Sa growth 42C | Sa growth 42C second temp | GIV Gai3 FP
O=C(CCC(=O)N1CCc2cc(S(=O)(=O)N3CCN(c4ccccc4)CC3)ccc21)N1CCCC1
 : -26 | nt | nt | 101
Cc1ccc2c(C)c(CCC(=O)O)c(=O)oc2c1
 : -29 | 72 | 90 | nt
Cc1occc1C(=O)Nc1ccc(Cl)cc1F
 : -31 | 100 | 89 | nt
Cc1nccc2[nH]c(=O)c(C(=O)NC3CCCc4ccccc43)cc12 (stereo not drawn)
 : 10 | 95 | 88 | 103
NS(=O)(=O)c1ccc(S(=O)(=O)NCC(=O)c2ccccc2)cc1
 : -10 | 93 | 80 | nt
COc1ccccc1CNC(=O)C1CCN(c2ncccc2-n2cccc2)CC1
 : 2 | nt | nt | 103
OCc1nccn1C(F)F
 : -24 | 98 | 96 | nt
CC(=O)N1CCc2c(sc3nc(SCC(C)C)n(-c4ccc(C)c(Cl)c4)c(=O)c23)C1
 : -12 | 89 | 68 | 99
CC(C)(C)c1ccc(C(=O)Nc2ccc(NC(=O)c3cc4ccccc4oc3=O)cc2)cc1
 : -18 | nt | nt | 100
COc1ccc(CCNC(=O)CN(c2ccc(C)cc2)S(=O)(=O)c2ccc(OC)cc2)cc1
 : -51 | 94 | 91 | 106
NC(=S)c1ccc(-c2cccs2)s1
 : -54 | 87 | 83 | 98
Cc1cccc(NC(=O)Cn2c(=O)nc(-c3ccccc3)c3ccccc32)c1C
 : nt | 90 | 89 | 99
CSc1nnc(-c2ccccc2)c(-c2ccccc2)n1
 : -6 | 92 | 90 | 102
CCN1C(C(=O)c2ccccc2)=C(OC(=O)COc2ccc(C)cc2)c2ccccc2S1(=O)=O
 : 1 | 69 | 70 | 112
O=C1CCNc2ccc(-c3ccccc3)cc21
 : -58 | 94 | 79 | 14*

An excerpt of these results, tab-delimited:
SMILES	HCMV NEC inh	Sa growth 42C	Sa growth 42C second temp	GIV Gai3 FP
O=C(CSc1nccc(=O)[nH]1)Nc1ccc(Cl)cc1	-39	73	78	91
Cc1cc(C(=O)N2CCC(C)CC2)no1	-2	nt	nt	102
Cc1ccc(Nc2nc(C(=O)N3CCC(C(=O)NCCN4CCOCC4)CC3)cs2)cc1	-1	180	91	104
CSc1ccc(-c2nc(SCC(=O)NCc3ccco3)c(-c3ccccc3)[nH]2)cc1	nt	89	86	98
Cc1ccc(OCC(=O)Nc2ccccc2SCc2cc(=O)n3cc(Cl)ccc3n2)cc1	-7	nt	nt	109
CCOC(=O)c1c(C)[nH]c(/C(C)=N/NC(=O)Cn2nc(C)cc2C)c1C	-6	94	94	nt
CCCCOc1ccc(-n2c(N)c(C#N)c3nc4ccccc4nc32)cc1	-15	71	91	nt
CN(C)CCN(C(=O)c1ccco1)c1nc2cc3c(cc2s1)OCO3	nt	76	79	104
COc1cc(OC)c(NC(=O)CCS(=O)(=O)c2ccc3c(c2)oc(=O)n3C)cc1Cl	nt	99	86	111
CCN(CC)S(=O)(=O)c1ccc2c(c1)c(=O)c(C(=O)N1CCN(c3ccc(OC)cc3)CC1)cn2C	-7	104	94	103
O=C(Cn1cccc1)Nc1ccc(F)cc1F	5	87	95	100
Cc1ccc(-n2c(=O)c3cccnc3n2CC(=O)Nc2cc(Cl)ccc2C)cc1	nt	100	97	105
NC(=O)N/N=C/c1ccc(/C=N/NC(N)=O)cc1	-4	100	95	104
Cc1c(C(=O)Nc2ccc(F)c(F)c2)oc2ccc(S(=O)(=O)N3CCCCC3)cc12	nt	105	95	102
c1ccc2c(c1)nc(NCc1ccc3c(c1)OCO3)n1cnnc21	-10	nt	nt	108
Cc1ccccc1CNC(=O)C1CCN(C(=O)c2sccc2-n2cccc2)CC1	4	103	96	107
CCC(NC(=O)c1ccccc1NC(=O)c1ccccc1)C(=O)N1CCCC1 (stereo not drawn)	-31	114	89	nt
CCN1CCN(Cc2ccc3c(c2)Cc2ccccc2-3)CC1	-7	102	120	99
Cc1ccccc1Nc1nc(N)nc(COC(=O)Cc2ccc(Cl)cc2)n1	-8	120	96	nt
O=C(CSc1ccccc1)NCCn1c(-c2ccncc2)nc2cccnc21	-2	nt	nt	99

(cont.)
The line under a structure holds: HCMV NEC inh | Sa growth 42C | Sa growth 42C second temp | GIV Gai3 FP
CCOC(=O)Cc1c(Cl)c2ccccc2[nH]c1=O
 : -6 | 91 | 88 | 102
CN(C)CCO/N=C(\c1ccccc1)c1ccncc1
 : -14 | 90 | 88 | 107
CCOc1ccc(C(=O)CSc2nnc3cc(C)c4ccccc4n23)cc1
 : -3 | 108 | 83 | 109
Cc1ccc2c(c1)NC(CN=C(N)N)CC2 (stereo not drawn)
 : -16 | 96 | 79 | 102&97
COc1cc(N2C(=O)CSC23C(=O)N(C)c2ccccc23)cc(OC)c1OC (stereo not drawn)
 : nt | 86 | 85 | 101
N#C/C(=C\c1cn(CC(=O)N2CCCC2)c2ccccc12)C(=O)NC1CC1
 : -120 | 95 | 77 | 104
O=C(NCCO)c1cc2cc(Cl)ccc2o1
 : -16 | 104 | 94 | 100
CCOC(=O)COc1ccc(C)cc1C(=O)c1ccn2nc(-c3ccc(C)cc3)cc2n1
 : -8&3 | 91 | 86 | 108&106
CC1CCCC(C)N1/N=C/c1ccc(C(=O)O)cc1 (stereo not drawn)
 : -3 | 94 | 98 | nt
Clc1ccc(CCN2COc3cc4c(cc3C2)OCO4)cc1
 : -47 | 92 | 90 | 109

Rows were taken by chance. Share with any hit: about 0.8%.
